ugtP null kill: growth inhibition of ugtP-null S. aureus, primary screen, RN4220 ugtP deletion, OD600. 16 h; some inactives read as strong as hits. growth inhibition, % (test concentration not listed). hit rate 0.54% among 330,000. AID 1259309, 2017;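 active = z-score under -3 and OD600 up to 0.15 on both plates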;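 note: plate controls were untreated wells for no effect and antibiotic for full effect; wells of about 80 µL received 100 nL stock; the first replicate is given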
Mtb hypoxia rep: PubChem AID 1159583 | hit rate 0.1% among 300,000 | fluorescence inhibition, % (test concentration not listed) | M. tuberculosis hypoxia-regulated fluorescent reporter, fluorescence;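 active = 35 to 45% if threefold the growth effect, above 45% if 1.5-fold the growth effect; inactive = the rest, general growth blockers included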;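 note: wells of about 50 µL received 100 nL stock; 0% = vehicle wells and 100% = reference inhibitor wells; whole bacteria with a GFP reporter of the hypoxia response; strong numbers were not always called active; many hits fall short of the cut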
Bead autofluor: counter-screen for toxin protease inhibitors: compound fluorescence | hit rate 3.1% among 360,000 | fluorescence intensity (no concentration beside the values) | compound autofluorescence counterscreen, microsphere flow cytometry; hits give high values | AID 624483;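 active = at least 3 SD above the mean of all compounds, about 16000 in these data; inconclusive = too few beads counted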;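 note: 100 nL of 1 mM stock went into each well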
BJeLR lethal: MLPCN primary cell-based screen for lethality selective to Ras in HRASV12 cells. BJeLR (HRASV12) viability, CellTiter-Glo ATP luminescence, 48 h; reference of the scale not given here. inhibition, % (no concentration beside the values). hit rate 0.17% among 300,000;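 active = replicate mean above 50%; inconclusive = above 50% but judged a plate artefact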;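 note: 50 nL library stock added to about 25 µL; numbers are from one replicate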
PrP 5UTR inh: inhibition of PrP 5' UTR reporter expression; cell-based PrP 5' UTR mRNA reporter, plate reader; inhibition, % (no concentration beside the values); hit rate 0.35% among 340,000; AID 488862, 2010;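 active = every replicate at 50% or more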;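 note: 0 = median of the neutral control wells; tested in H4 reporter cells; numbers are from one replicate; inactives centre near -14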
RN4220 kill: growth inhibition of S. aureus RN4220, primary screen, OD600; 16 h; inhibition, % (concentration not given with the values); hit rate 0.33% among 330,000; AID 1259311, 2017;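 active = z-score of -3 or lower and OD600 up to 0.18 on both plates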;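 note: plate controls were untreated cells for no effect and reference antibiotic for full effect; stock transfer was 100 nL into about 80 µL; one replicate is shown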
Mtb hypoxia rep growth: also measured in Mtb hypoxia rep; calls as there; growth inhibition, %; measured here: M. tuberculosis growth (absorbance);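 0% = vehicle and 100% = reference antibiotic; read after six days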
An asterisk follows results filed as active; u = inconclusive; x = not tested or not shown.

Second line of a record: Mtb hypoxia rep, ugtP null kill, RN4220 kill, Mtb hypoxia rep growth, BJeLR lethal, PrP 5UTR inh, Bead autofluor
1	COc1ccc(C(=O)N2CCN(c3ccc(NC(=O)c4cccnc4)cc3)CC2)cc1
    3, 2, 0.0, 16, 2, 0, 6273
2	CC(=O)c1ccc(NC(=O)Nc2ccc(Br)cc2C)cc1
    2, -12, -7.6, 11, 3, -9, 3229
3	CCn1c(SCc2ccc(Cl)c(Cl)c2)nnc1C(C)NC(=O)c1ccc(OC)cc1 (stereo unspecified)
    6, 7, 4.6, 4, -1, -14, 10562
4	COc1cccc(NC(=O)C(=O)NCCc2ccc(F)cc2)c1
    -1, 0, 4.4, -12, 5, -61, 4270
5	O=C(NC(=S)N1CCCc2ccccc21)c1ccc(Br)cc1
    13, -10, 0.3, 4, 2, -11, 1718
6	Cc1cccc2sc(NC(=O)CCn3cccc3)nc12
    15, -1, 1.9, 3, x, -15, 3512
7	CCOc1ccc(NC(=O)NCCCSC2CCCCC2)cc1
    -1, -7, -3.7, 12, 1, 3, 22514*
8	CCOC(=O)N1CCN(c2cc(N(C)CCO)c([N+](=O)[O-])c3nonc23)CC1
    -14, 0, -0.8, -8, 5, -7, 2523
9	CCOC(=O)c1cnc(-n2nc(C)cc2C)nc1N1CCOCC1
    11, -1, 3.6, 9, x, -17, 23062*
10	COc1ccc(-c2[nH]ncc2CN2CCN(c3ccccn3)CC2)c(OC)c1
    10, 4, 0.1, 9, 1, -5, 4178
11	Cc1ccccc1CSc1nsc(N)n1
    6, 36, 3.9, 1, 0, -17, 10765
12	CC(C)n1cnc2c(oc3ccccc32)c1=O
    15, -3, 6.8, 8, 4, -21, 3555
13	CC1(C)NC(=O)N(CC(O)COc2ccc(-c3ccccc3)cc2)C1=O (stereo unspecified)
    x, 3, 2.6, x, 1, -11, 4833
14	COC(=O)c1ccc(N2CCN(c3ccccc3)CC2)c(N)c1
    13, 2, 4.2, 2, -4, -11, 4072
15	COc1ccc2occ(C(=O)c3coc4ccc(O)c(CN(C)C)c34)c2c1
    3, -17, 4.1, 13, -2, -43, 23271*
16	COc1nc(Nc2ccccc2)nc(OC)n1
    1, -2, 3.6, 8, 0, -3, 3740
17	Cc1ccc(C(=O)c2nocc2C(=O)c2cccs2)cc1
    10, -6, 7.7, 11, -8, -4, 2475
18	COc1ccc(C(=O)N2CC(=O)Nc3ccccc32)cc1S(=O)(=O)N1CCCC1
    5, 5, 0.9, 6, -16, 46, 4597
19	[O-]/C(=C(\C(=S)NCc1ccccc1)[n+]1ccccc1)c1ccc(Cl)cc1
    0, -4, -0.6, 14, 0, 3, 4807
20	Cc1cc(=O)nc2c3ccccc3n(CC(=O)NCCCN3CCCC3=O)n12
    4, 5, 5.1, 0, 0, 0, 4155
21	Cc1ccc(CNC(=O)C2CCC(=O)N(CCCN3CCOCC3)C2)cc1 (stereo unspecified)
    1, 3, 0.4, 7, -1, -6, 5414
22	COc1ccccc1C(=O)O/N=C1/CCCc2c1ccc(OC)c2[N+](=O)[O-]
    x, x, x, x, -2, -4, 2929
23	CN(C)CCCn1c(=O)n(CCc2ccccc2)c(=O)c2c3c(sc21)CCCCC3
    13, 15, 0.0, 11, -1, -10, 3872
24	CCCC(=O)NCCc1cc2ccc(OC)cc2[nH]c1=O
    10, 3, 2.0, 13, -4, -32, 10836
25	COCCCn1ccc(O)c(Cc2ccc(F)cc2)c1=O
    5, -4, 0.7, 8, -4, -11, 2933
26	COC(=O)c1cc([N+](=O)[O-])ccc1N1CCN(Cc2ccccc2)CC1
    2, -1, -2.4, 8, 2, -12, 2008
27	S=C(NCc1cccnc1)NCc1cccnc1
    -5, 5, 9.7, -2, x, -7, 4176
28	O=C(COC(=O)CCCc1nc2ccccc2s1)Nc1ncc(Cl)cc1Cl
    10, -4, 4.3, -1, 1, -21, 9757
29	O=C(NCC(=O)N(c1ccc(F)cc1)C(C(=O)NC1CCCC1)c1cccnc1)c1ccco1 (stereo unspecified)
    -11, 5, -0.5, -1, -3, -7, 6088
30	Cc1csc(C)[n+]1CC(=O)c1ccccc1
    -2, 3, -0.9, 10, 16, -9, 3957
31	COc1cc2c(cc1OC)/C(=C/c1ccc(Br)cc1)C(=O)OC2
    12, -1, 10, 1, -2, -26, 2427
32	CCOc1ccc(NC(=O)CN2CCN(C(=O)C3CCCO3)CC2)cc1 (stereo unspecified)
    0, 1, 0.2, -7, 2, -18, 4745
33	O=C(COc1ccccc1)NNc1nc2ccccc2s1
    2, 0, 4.7, 3, -5, -30, 3560
34	COc1ccc(N2CCN(S(=O)(=O)c3cc(Br)cnc3N)CC2)cc1
    1, 13, 6.5, -4, -2, -1, 4756
35	CCn1cc(C(=O)N2CCc3ccccc32)c(=O)c2cc(S(=O)(=O)N3CC(C)CC(C)C3)ccc21 (stereo unspecified)
    7, 5, 4.8, 9, -4, -5, 2559
36	CC1CCc2sc3ncnc(N4CCN(CCO)CC4)c3c2C1 (stereo unspecified)
    12, 2, 4.2, 2, -10, -12, 3972
37	O=C(CN1CCN(S(=O)(=O)c2ccc3ccccc3c2)CC1)Nc1ccc(N2CCOCC2)cc1
    3, 2, 2.3, 4, -17, 5, 2733
38	O=C(CCCNC(=O)c1ccc(Cl)cc1)Nc1cccc(F)c1
    9, -6, 3.7, -4, -6, -6, 6154
39	Cc1cc(C(=O)COc2ccc(F)cc2Br)c(C)n1C
    14, 8, 6.7, 17, 1, -2, 3419
40	C=CCn1c(SCC(=O)N2CCOCC2)nc2ccccc2c1=O
    -7, -3, -1.8, 9, -1, 1, 6024
41	COc1ccc(CCNC(=O)c2cc3c(=O)n4ccccc4nc3n(Cc3ccco3)c2=N)cc1OC
    39*, -1, 2.1, 16*, 2, -16, 6130
42	CCCCN(c1ccccc1)c1ncnc(N)c1[N+](=O)[O-]
    5, 2, 3.6, 8, 7, -3, 11922
43	Cc1ccc2nc(=O)c(NNc3ccccc3)cnc2c1
    8, -11, -0.7, 1, -3, -60, 2110
44	CN(C)CCN(C(=O)C1CCN(S(=O)(=O)c2cccs2)CC1)c1nc2ccc(F)cc2s1
    -1, 7, 0.4, 1, 7, -19, 5825
45	CN(c1ccccc1)S(=O)(=O)c1cccc(C(=O)NC2CCCC2)c1
    18, -4, 6.8, 13, x, -15, 3498
46	CC(=O)Nc1ccc(SCC(=O)N(C)CC(=O)Nc2ccccc2Cl)cc1
    11, -5, -0.4, -2, x, -24, 4176
47	COC(=O)c1sc(NC(=O)C(C)C)c(C(=O)OC)c1C
    x, 0, 2.3, x, 1, -15, 2865
48	O=C(c1ccco1)N1CCN(C(=O)c2cnn(-c3cccc(F)c3)c2C2CCNCC2)CC1
    8, 9, 1.8, 3, 0, -3, 5576
49	COc1ccc(S(=O)(=O)NC2(C(F)(F)F)N=C(c3ccccc3)NC2=O)cc1 (stereo unspecified)
    17, 8, 1.4, 8, -1, -23, 2210
50	CCN(C(=O)Cn1c(=O)n(-c2cc(OC)c(OC)c(OC)c2)c(=O)c2ccccc21)c1cccc(C)c1
    10, 8, 2.7, 16, -11, -23, 5556

Going on with the list:
Second line of a record: Mtb hypoxia rep, ugtP null kill, RN4220 kill, Mtb hypoxia rep growth, BJeLR lethal, PrP 5UTR inh, Bead autofluor
51	CC(C)[C@H](NC(=O)c1ccc(C(C)(C)C)cc1)C(=O)N1CCN(Cc2ccc3c(c2)OCO3)CC1
    3, 10, 4.4, 6, x, -23, 3033
52	CC(C)(C)C(=O)N(Cc1ccc(Cl)cc1)c1cnccn1
    12, 5, 3.6, 1, -5, -11, 3061
53	COC(=O)C1=C(c2ccc(F)cc2F)CC2CCC1N2C(=O)N1CCCCC1 (stereo unspecified)
    8, 6, 8.0, 1, x, x, x
54	Cc1cc(=O)oc2c(C)c(OCC(=O)N3CC[C@@]4(O)CCCC[C@H]4C3)ccc12
    x, -4, 7.0, x, 3, -7, 5484
55	COC(=O)c1cc2c(ccn2-c2ccc(F)cc2)n1CC(=O)C(C)(C)C
    5, 24, -0.5, 5, 3, -21, 2992
56	Cn1nc(C(F)(F)F)c(-c2ccc(Br)cc2)c1NC(=O)Nc1ccc(F)cc1F
    5, 9, 35, 1, 2, -14, x
57	O=C(COc1ccc2c(c1)CCC2)N1CCN(c2ccccc2F)CC1
    -5, 6, -3.1, -1, 5, -26, 10076
58	CC(C(=O)NC1CCCCC1)N1CCN(S(=O)(=O)c2cccs2)CC1 (stereo unspecified)
    6, 4, 3.4, 3, x, -22, 8482
59	O=C(Nc1ccc(Br)cc1)c1cccc(-n2cnnn2)c1
    17, -3, 1.2, 6, 4, -25, 5396
60	O=C(c1ccc(Cl)cc1[N+](=O)[O-])N1CCc2ccccc2C1
    15, 7, 12, 2, -2, -4, 2717
61	C=CCC(NC(=O)Cc1ccccc1)C(=O)NCCC (stereo unspecified)
    7, -5, -11, 2, x, -24, 4046
62	N#CCCN(C(=O)Cn1nc(C(=O)O)c2ccccc2c1=O)c1ccccc1
    19, 11, 1.0, 5, -17, -20, 3715
63	Cc1c(NC(=S)NC(=O)c2cccc(Cl)c2)c(=O)n(-c2ccccc2)n1C
    12, 5, 1.8, 4, 5, -20, 3542
64	O=C(Oc1cccc(C(=O)N2CCOCC2)c1)c1ccc(Br)cc1
    3, 1, 0.2, -3, -5, -27, u
65	CCc1ccc(CNC(=O)c2cc3c(C)nc4ccccc4c3o2)cc1
    -3, -19, 0.7, 16, 9, 0, 5616
66	COc1cc(NC(=O)C2CC2C)c(C(=O)O)cc1OC (stereo unspecified)
    x, 9, 4.4, x, 0, -22, 2209
67	Cc1onc(-c2c(Cl)cccc2Cl)c1COC(=O)c1ccc(Cl)cc1
    11, 89*, 4.9, 8, 1, -33, 6366
68	CCN1CCN(C(C)C(=O)NC2CCCCC2)CC1 (stereo unspecified)
    2, 6, 1.7, -7, 9, -2, u
69	CCCN(CCC)c1nc2ccccc2n2c(C)nnc12
    9, 5, 4.0, 12, 7, 0, 6640
70	Cc1ccc(-c2nn(-c3ccc(F)cc3)cc2C(=O)NC2CCC(O)CC2)cc1 (stereo unspecified)
    0, 7, -0.5, 6, -5, -15, 5464

The last two records of the part before are carried over, then new ones follow.
Second line of a record: Mtb hypoxia rep, ugtP null kill, RN4220 kill, Mtb hypoxia rep growth, BJeLR lethal, PrP 5UTR inh, Bead autofluor
69	CCCN(CCC)c1nc2ccccc2n2c(C)nnc12
    9, 5, 4.0, 12, 7, 0, 6640
70	Cc1ccc(-c2nn(-c3ccc(F)cc3)cc2C(=O)NC2CCC(O)CC2)cc1 (stereo unspecified)
    0, 7, -0.5, 6, -5, -15, 5464
71	CC(=O)c1c(C)[nH]c(C(=O)N2CCN(c3ncccn3)CC2)c1C
    8, -4, -4.5, 5, -9, 0, 4643
72	O=C(COC(=O)c1ncc(Cl)c(Cl)c1Cl)NC(=O)c1ccccc1
    0, 10, 5.7, -1, 8, -4, u
73	COC(=O)[C@H](CC(C)C)NC(=O)N1CCC(C)CC1
    18, 9, 1.9, 11, 11, -21, 5777
74	CN(C)CCNC(=O)C1(O)c2cc(Br)ccc2NC(=O)N1c1ccc(Cl)cc1 (stereo unspecified)
    -2, 4, 3.3, -1, 4, -17, 3674

Only Bead autofluor (four entries from above):
nr | Structure | Bead autofluor
58 | CC(C(=O)NC1CCCCC1)N1CCN(S(=O)(=O)c2cccs2)CC1 (stereo unspecified) | 8482
59 | O=C(Nc1ccc(Br)cc1)c1cccc(-n2cnnn2)c1 | 5396
60 | O=C(c1ccc(Cl)cc1[N+](=O)[O-])N1CCc2ccccc2C1 | 2717
61 | C=CCC(NC(=O)Cc1ccccc1)C(=O)NCCC (stereo unspecified) | 4046

Screens deposited in PubChem BioAssay by several laboratories.
